Vaccinia pol inh: inhibitors of vaccinia virus processive DNA synthesis (E9 polymerase); in vitro processive DNA synthesis, absorbance read-out; stronger effect = lower value; some inactives read as strong as hits; normalized absorbance, % (no concentration beside the values); actives 0.94% (n = 46,000);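 active = replicate mean up to 90% and picked by the depositor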;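 note: 100% = median of the test wells of a plate; 100 nL library stock went into each well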
* = called active by the depositor.

SMILES | Vaccinia pol inh
C=CCn1c(CCCNC(=O)c2cccs2)nc2ccccc21 | 91.4
CSC(=S)n1c(C)nc2ccccc21 | 92.0
COC(=O)c1nsc(Cl)c1Cl | 100.2
Cn1c(=O)c2ccccc2n2c(=S)sc(-c3ccccc3)c12 | 100.2
CC1=NCCNC(C)=C1N1CCOCC1 | 93.3
O=C(Oc1ccc2ccccc2c1)c1ccccc1 | 100.9
Nc1ccccc1OCCOc1ccccc1N | 104.6
CCC(=O)N(CCC1(c2ccccc2)CCOC(C)(C)C1)Cc1ccccc1F (stereo not drawn) | 102.5
O=C(CNc1cc(Cl)ccc1Cl)N1CCCC1 | 99.4
O=C(Nc1cccc(C(F)(F)F)c1)C1CCC(Cn2c(=O)[nH]c3ccsc3c2=O)CC1 (stereo not drawn) | 75.9
CNc1nc2ccccn2c(=O)c1/C=C1\SC(=S)N(C)C1=O | 100.2
CCn1c(C(=O)NCc2ccc(OC)cc2)cc2sccc21 | 102.5

SMILES | Vaccinia pol inh
COc1ccc(NC2C=CS(=O)(=O)C2)cc1 (stereo not drawn) | 102.8
COC(=O)c1ccccc1NC(=O)c1ccc2c(c1)OCO2 | 100.1
Cc1cccc(OCCC(=O)O)c1 | 118.2
S=c1[nH]c(-c2ccccc2)cn1-c1ccccc1 | 98.9
N#CCc1nc(-c2ccc(-c3ccccc3)cc2)cs1 | 88.6
O=C(NCCSc1c[nH]c2ccccc12)c1ccc(N2C(=O)CCC2=O)cc1 | 91.2
C/C(C=Nc1ccccc1)=C\Nc1ccccc1 | 98.1
CN(C(=O)c1ccc(S(=O)(=O)N2CCCC2)cc1)c1ccccc1 | 107.8
O=C(COC(=O)c1cc(-c2ccc(F)cc2)nc2ccccc12)Nc1ccccc1F | 102.0
CS/C(NC1CCCCC1)=C(/C#N)S(=O)(=O)c1ccc(Cl)cc1 | 78.2
CC(Oc1ccccc1)C(=O)N1CCCc2ccccc21 (stereo not drawn) | 102.8
NNC(=O)CC(=O)NC1(Cc2ccc(O)cc2)CCCCC1 | 98.5

Structural class: the entries above containing a cyano group
SMILES | Vaccinia pol inh
N#CCc1nc(-c2ccc(-c3ccccc3)cc2)cs1 | 88.6
CS/C(NC1CCCCC1)=C(/C#N)S(=O)(=O)c1ccc(Cl)cc1 | 78.2

The listing continues.
SMILES | Vaccinia pol inh
Cc1ccc(S(=O)(=O)N2c3ccccc3OC2c2ccc(Cl)c(Cl)c2)cc1 (stereo not drawn) | 98.6
COc1cc2c(cc1OC)[C@@H](Cc1ccc(O)cc1)N(C)CC2 | 99.7
O=C1CC(c2ccc(S(=O)(=O)NCc3ccncc3)cc2)CN1 (stereo not drawn) | 100.2
CCc1ccc(/C=C2\Cc3ccccc3C2=O)cc1 | 85.0
Cc1ccc(S(=O)(=O)Nc2cccc(C(=O)N3CCOCC3)c2)cc1 | 97.6
O=C(O)c1cc(N(Cc2ccccc2O)Cc2cc(O)ccc2O)ccc1O | 99.9
c1ccc(C(Nc2nccs2)c2ccccc2)cc1 | 103.2
c1ccc(-c2nnsc2-c2nc3ccccc3[nH]2)cc1 | 101.0
c1ccc(Nc2csc(N=C3CCCCC3)n2)cc1 | 99.7
Cc1ccccc1Cn1cc(S(=O)(=O)CC(=O)N2CCCCCC2)c2ccccc21 | 98.4
Cc1nn(-c2ccccn2)c2c1C1C(C2)C1(C)C (stereo not drawn) | 98.0
CCc1cc(C(=O)COc2ccc3ccccc3c2)c(O)cc1O | 105.2

SMILES | Vaccinia pol inh
COc1cc(OC)cc(C(=O)Nn2cc(C(=O)N3CCN(C)CC3)c3ccccc3c2=O)c1 | 97.3
O=C1c2ccccc2-c2c(-c3ccccc3)nc3ccccc3c21 | 98.8
NCC1CCC(C(=O)O)CC1 (stereo not drawn) | 98.3
Cc1ccc(SC2=NS(=O)(=O)c3ccccc32)c(C)c1 | 100.2
O=C1OC(c2cccs2)=N/C1=C\c1cccc(F)c1 | 93.3
Cn1cccc1/C=C1\CC/C(=C\c2cccn2C)C1=O | 105.6
O=C(OCCN=C1NS(=O)(=O)c2ccccc21)c1cccnc1 | 100.2
CCCCn1c2ccccc2c2nc3ccccc3nc21 | 99.6
c1cnc2c(OCC3CCCN4CCCCC34)cccc2c1 (stereo not drawn) | 99.2
COC(=O)COc1ccc2ccccc2c1 | 102.8
COC(=O)c1cc2ccc3c(c2oc1=O)CN(Cc1ccccc1)CO3 | 105.0
CN1C2C=C3[C@H](C1CC2)[C@@H](c1ccc(Cl)cc1)C(C#N)=C(N)C3(C#N)C#N (stereo partly drawn) | 97.0

SMILES | Vaccinia pol inh
COC(=O)c1c(C)nn(C(=O)c2ccc(C)cc2)c1-c1cc(C)on1 | 99.1
CCOc1ccc(CSc2n[nH]c(CC)n2)cc1 | 99.3
CC1CC(Nc2ccccc2)c2ccccc2N1C(=O)c1ccncc1 (stereo not drawn) | 100.6
N#Cc1c(F)cccc1C(C#N)c1ccc(Cl)cc1Cl (stereo not drawn) | 98.6
O=S(=O)(c1ccccc1)c1ccc(S(=O)(=O)N2CCCCC2)s1 | 100.1
CCN(CC)c1ccc2cc(-c3nnc(-c4cccs4)o3)c(=O)oc2c1 | 100.4
CCN(CC)c1ccc(CNc2ccc3c(c2)ncn3C(C)(C)C)cc1 | 95.7
O=C(COc1ccc(Cl)cc1Cl)Nc1nc2ccccc2[nH]1 | 103.4
CN1OC(CO)CC1c1ccccc1 (stereo not drawn) | 81.1
O=c1c2oc3ccccc3c2n(Cc2ccccc2)c(=O)n1Cc1ccccc1 | 101.2
COc1cc2[nH]c(=S)n(CCc3ccccc3)c(=O)c2cc1OC | 95.1
Cc1c(C(=O)N2CCCCC2C)sc2nc(-c3ccccc3)cn12 (stereo not drawn) | 100.2

SMILES | Vaccinia pol inh
CSc1nnc2c(n1)OC(c1ccccc1)Nc1ccccc1-2 (stereo not drawn) | 99.9
O=C(c1cc(C2CC2)on1)N1CCc2ccccc2C1 | 98.9
Cc1c(N=C2SCC(=O)N2/N=C\c2ccc(Br)cc2)c(=O)n(-c2ccccc2)n1C | 99.2
COc1ccc2c(c1)C=C(C(=O)Nc1ccccc1)CO2 | 103.4
CCOC(=O)c1ccsc1NC(=O)C1CC1 | 90.5
COc1ccc(NC(=O)C(C)C2SC(=O)NC2=O)cc1 (stereo not drawn) | 94.9
O=C(OCc1ccccc1)c1ccc2ccccc2n1 | 99.4
COC(=O)C1=CN(C(C(=O)OC)c2ccccc2)C=C(C(=O)OC)C1c1ccc(F)cc1 (stereo not drawn) | 100.1
CCOc1ccc2nc(C34CC5CC(CC(C5)C3)C4)ccc2c1 | 97.3
CC1CCN(C(=O)c2ccc3c(SCC(=O)O)c4c(nc3c2)CCCC4)CC1 | 95.6
COc1ccc(OCC2c3cc(OC)c(OC)cc3CCN2C(=O)Nc2ccc(Cl)cc2)cc1 (stereo not drawn) | 101.8
O=C(Nc1cc(C(F)(F)F)ccc1-n1cncn1)c1ccc(Cl)cc1 | 88.0

SMILES | Vaccinia pol inh
O=C(NC1CC1)c1ccc2c(c1)N(Cc1ccccc1)CCS2 | 96.6
CC(C)N(C(=O)C12CC3CC(CC(C3)C1)C2)c1ccccn1 | 88.4
Cc1ccc(CNC(=O)c2ccccc2C(=O)O)cc1 | 104.9
NC(=O)c1ccccc1NS(=O)(=O)c1cccs1 | 99.0
CC(C)[C@H](NC(=O)OCc1ccccc1)C(=O)N[C@H](C=O)Cc1ccccc1 | 97.4
CCSc1nnc(-c2c[nH]c3ccccc23)n1-c1cccc(OC)c1 | 104.9
O=C(COCc1cc(-c2ccc(F)cc2)on1)NCC1CCCO1 (stereo not drawn) | 106.9
CCN(CC)c1ccc2cc(C(=O)NC3CCCCC3)c(=O)oc2c1 | 103.2
FC(F)(F)Oc1ccc(C2c3ccsc3CCN2Cc2ccccc2)cc1 (stereo not drawn) | 105.3
CC1S/C(=C/c2nc3ccccc3s2)NC1=O (stereo not drawn) | 109.8
COC(=O)c1cc(OC)c(OC)cc1NC(C)=O | 102.0
CC(C)(C)c1ccc(=O)[nH]n1 | 91.5

SMILES | Vaccinia pol inh
Brc1ccc(C=NC2C3CC4CC(C3)CC2C4)cc1 (stereo not drawn) | 100.4
O=C(c1scc2c1CCCC2)N1CCN(c2ccccc2O)CC1 | 97.0
CCCSc1ccc(C(=O)Nc2ccc(Cl)cc2)cn1 | 98.4
CC(CC1C(C#N)=C(N)OC2=C1C(=O)CCC2)c1ccccc1 (stereo not drawn) | 100.9
CC(=O)Nc1nonc1NC(=O)c1ccc(C)cc1 | 100.1
CCCCC[C@H](O)/C=C/C=C\C/C=C\C/C=C\CCCC(=O)O | 99.3
Cc1nn(C)c(Oc2cccc(C(F)(F)F)c2)c1C(=O)O | 91.1
Cc1ccc(S(=O)(=O)N2CCCCC2C(=O)N(C)Cc2ccccc2)cc1 (stereo not drawn) | 100.5
c1ccc2cc(Nc3ncnc4[nH]ncc34)ccc2c1 | 100.1
Cc1ccc(-c2c[n+](=O)c3c(n2[O-])CCC3)cc1 | 100.6
O=C(c1cc2ccccc2oc1=O)N(c1ccccn1)C1CCCCC1 | 83.1
O=C(C1CCN(S(=O)(=O)c2ccccc2)CC1)N1CCCC1 | 105.5

SMILES | Vaccinia pol inh
CCCCc1oc2ccccc2c1C(=O)c1ccc(O)cc1 | 99.4
Clc1cccc(Cl)c1Cn1nnc(N2CCCC2)n1 | 109.2
CC(=O)Nc1cccc2ncccc12 | 96.7
CC1CCCCC1NC(=O)CCn1nc(-c2ccccc2)ccc1=O (stereo not drawn) | 105.5
O=S1(=O)CCC(N=Cc2ccc(-c3cccc(C(F)(F)F)c3)o2)C1 (stereo not drawn) | 97.8
O=c1c2cc(N3CCOCC3)ccc2[nH]c(=S)n1CCc1ccccc1 | 94.8
Cc1cnc(C(=O)Nc2ccccc2F)cn1 | 99.9
CCOC(=O)N1CCN(CC(O)COCc2ccccc2)CC1 (stereo not drawn) | 99.7
CC(C)(C)c1cc(C(=O)NCCCn2ccnc2)cc(C(C)(C)C)c1 | 99.8
Cc1ccc2onc(CC(=O)NCc3cccc(Cl)c3)c2c1 | 99.5
COc1ccccc1Nc1c2c(nc3ccc(NC(=O)CCN4CCOCC4)cc13)CCCC2 | 102.1
COc1ccc(C(=O)CSc2nnc(-c3ccco3)c(-c3ccco3)n2)cc1 | 67.7*

SMILES | Vaccinia pol inh
CSc1cccc(NC(=O)CC(C)S(=O)(=O)c2ccc3c(c2)OCC(=O)N3)c1 (stereo not drawn) | 90.4
CC(C)(C)OC(=O)N1CCN(C(=O)c2ccccc2C(=O)O)CC1 | 95.5
Clc1cc2c(c3ncccc13)OCN(C1CCCC1)C2 | 99.8
COc1cc2c(cc1OC)CN(C(=O)Cn1c(C)cc(C)c(C#N)c1=S)CC2 | 100.5
CN(Cc1ccccc1)C(=O)COC(=O)c1ccc(Br)o1 | 104.4
CC(=O)Nc1nnc(SCc2cccc(C(F)(F)F)c2)s1 | 101.3
C=CCNC(=O)CN1C(=O)/C(=C/c2ccccc2)Sc2ccccc21 | 87.9
Cc1cccc(-n2c(SCC(=O)O)nnc2-c2cccs2)c1C | 88.7
CC(CNS(=O)(=O)c1ccccc1)(c1ccccc1)N1CCCCC1 (stereo not drawn) | 100.5
Cc1nc2ccccc2n1C(F)(F)C(O)c1ccco1 (stereo not drawn) | 96.4
O=S(=O)(Nc1cccc(I)c1)c1cccs1 | 99.3
O=C(Nc1nc(-c2ccc3c(c2)OCCO3)cs1)c1ccccc1 | 102.7

Random excerpt: two entries already listed.
SMILES | Vaccinia pol inh
O=C(c1cc(C2CC2)on1)N1CCc2ccccc2C1 | 98.9
O=S1(=O)CCC(N=Cc2ccc(-c3cccc(C(F)(F)F)c3)o2)C1 (stereo not drawn) | 97.8

Other entries
SMILES | Vaccinia pol inh
CCN(C1CCCCC1)S(=O)(=O)c1ccc(C)cc1 | 100.8
Cc1cnc(C(=O)Nc2ccc(Cl)cc2C(=O)c2ccccc2)cn1 | 103.1
O=C(NC1CCCCC1)C1c2ccccc2C(=O)N1Cc1ccco1 (stereo not drawn) | 105.1
COC(=O)c1cc(S(=O)(=O)N(C)C2CCCCC2)c[nH]1 | 95.7
CCOC(=O)CSc1nnc(-c2ccc3ncccc3c2)n1C | 99.6
O=C(NC1CCCCC1)C(c1cccs1)N(C(=O)CC1CC2CCC1C2)c1ccccc1 (stereo not drawn) | 98.7
CCn1ccc(C(=O)Nc2ccccc2Cl)n1 | 100.1
COc1ccc(CNc2cc(C)cc(C)c2)cc1 | 68.0
CCSc1nc2ccccc2n1CC(=O)Nc1cc(Cl)ccc1OC | 102.6
CCOC(=O)c1nc(N)c(=O)n(-c2ccc(Cl)cc2)n1 | 100.3
COc1ccc(CCn2c(=S)[nH]c3c(sc4ccccc43)c2=O)cc1OC | 99.9
CCOc1ccc(NC2=NCCCS2)cc1 | 99.7

SMILES | Vaccinia pol inh
COc1ccc(C2CC(c3cc4ccccc4oc3=O)=Nc3ccccc3N2)cc1 (stereo not drawn) | 99.8
Cc1cccc(C(=O)OCc2nc3ccccc3c(=O)[nH]2)c1C | 93.3
CC1CC1C(=O)OCC(=O)Nc1ccccc1Oc1ccccc1 (stereo not drawn) | 98.2
CCOC(=O)c1c(C)oc2cc(Br)c(O)cc12 | 101.2
COc1ccnc(Oc2cccc(C(F)(F)F)c2)c1C#N | 103.7
Cc1ccc(S(=O)(=O)N2CCCC2C(=O)NC2CCCCC2)cc1 (stereo not drawn) | 100.3
Cc1cc(NC(=O)CSc2c[nH]c3ccccc23)no1 | 99.4
COc1cccc2c(=O)n(CC(=O)N3CCCC3)ccc12 | 99.3
CC(C)C(NC(=O)C12CC3(C)CC(C)(CC(C)(C3)C1)C2)C(=O)O (stereo not drawn) | 95.1
CCOc1cc(/C=C2\Sc3ccccc3C2=O)cc(I)c1O | 94.5
COc1ccc(-c2csc(N)n2)cc1 | 96.9
NC(=O)c1cnn(C2CCS(=O)(=O)C2)c1 (stereo not drawn) | 110.2

SMILES | Vaccinia pol inh
OC(COc1ccc(Br)cc1)Cn1nnc2ccccc21 (stereo not drawn) | 99.9
CCOC(=O)[C@@H]1Nc2ccc(C(=O)O)cc2[C@@H]2C=CC[C@H]12 | 55.9*
CCOc1ccc(S(=O)(=O)NCc2ccccc2)cc1-c1nc2c(C(C)(C)C)nn(C)c2c(=O)[nH]1 | 99.9
FC(F)(F)c1cccc(Sc2cnc3ccccc3n2)c1 | 100.0

Source: PubChem

An excerpt; the hit share may differ from the screen's.
